# CSC inhib: blocks cancer stem cells. cancer stem cell-like cells viability, luminescence. inhibition, % at 7.5 µM. 300,000 compounds, 1.1% hits. AID 2717;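 active means mean at 75% or more and at least half the replicates too; tested in HMLE shEcad cells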;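 further: 0% = median of negative and 100% = median of positive control wells; the first replicate is given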
# MT1-MMP act inh: blocks activation of human MT1-MMP | P50281 | HT1080 RFP-PRO-GFP cells, GFP/RFP ratio fluorescence, overnight; percent of plate control window, DMSO zero | GFP/RFP ratio change, % at 20 µM | 360,000 compounds, 0.061% hits | AID 651647;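 active means GFP/RFP ratio change of at least 30% with cell ATP level not reduced by more than half and red fluorescence within 50% of control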; further: strong numbers were not always called active
#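 system = RFP-PRO-GFP reporter HT1080 cells | dosing = 20 µM single dose, 1% DMSO | timing = overnight cell settling, then overnight compound exposure, 37 °C, 5% CO2 | read-out basis = GFP/RFP fluorescence ratio | controls = DMSO and RFP-L50D-GFP cell wells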
# PABP polyA inh: blocks human PABP binding to poly(A) RNA; inhibition, % at 35 µM; fluorescence polarization; 290,000 compounds, 1% hits; P11940;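 active means 50% or more with normal probe brightness, or confirmed in later tests; about a fifth of its hits are not listed in these tables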;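 further: calls also rest on retests at 20 µM and on dose response follow-up; controls were probe without protein and protein plus probe with vehicle; some compounds called inactive have numbers as strong as hits; many hits fall short of the cut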
# Target sequence (P11940 whole entry, looked up): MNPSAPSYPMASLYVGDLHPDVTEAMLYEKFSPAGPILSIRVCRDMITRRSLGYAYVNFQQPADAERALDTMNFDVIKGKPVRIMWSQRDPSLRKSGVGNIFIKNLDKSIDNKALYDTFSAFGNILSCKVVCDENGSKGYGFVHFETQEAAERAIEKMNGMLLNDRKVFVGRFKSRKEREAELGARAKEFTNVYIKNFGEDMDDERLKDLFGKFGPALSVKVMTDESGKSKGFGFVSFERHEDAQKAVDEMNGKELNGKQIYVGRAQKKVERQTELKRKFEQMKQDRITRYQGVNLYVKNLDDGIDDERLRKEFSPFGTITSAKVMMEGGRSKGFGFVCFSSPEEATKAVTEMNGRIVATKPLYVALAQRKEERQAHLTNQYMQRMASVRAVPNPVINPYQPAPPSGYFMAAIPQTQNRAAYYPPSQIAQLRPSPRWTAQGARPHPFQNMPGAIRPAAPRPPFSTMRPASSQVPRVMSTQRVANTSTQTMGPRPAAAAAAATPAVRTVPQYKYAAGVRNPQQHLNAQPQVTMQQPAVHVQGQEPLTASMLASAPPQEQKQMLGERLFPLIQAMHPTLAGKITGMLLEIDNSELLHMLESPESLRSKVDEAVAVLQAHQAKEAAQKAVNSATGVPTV
# UUG fidelity: yeast start codon fidelity modulation. S. cerevisiae UUG-firefly luciferase reporter, luminescence/redox ratio. activity score, % at 18.7 µM. 350,000 compounds, 0.13% hits. AID 602363;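 active means replicate mean at a twofold rise or more, about +100% in these data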;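 further: firefly luciferase made from a UUG start codon reports start codon fidelity; reporter light over untreated wells divided by growth signal over untreated wells; some hits fall short of that in this replicate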
# Env fusion inh: HIV envelope-mediated fusion inhibition; 360,000 compounds, 1.1% hits; inhibition, % at 12.3 µM; AID 651610; HeLa-JRFL Env/CEM21 cell fusion, luciferase;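 active means mean replicate inhibition score of at least 50 and every replicate individually at or above 50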;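 further: 0% = plate neutral controls and 100% = maraviroc near 300 nM; one replicate is shown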
# eIF4H FP inh: inhibitors of RNA binding by human eIF4H | Q15056 | 290,000 compounds, 0.94% hits | eIF4H fluorescence polarization binding assay | inhibition, % at 35 µM;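 active means 50% or more with normal probe brightness, or confirmed in later tests; about a fifth of its hits are not listed in these tables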;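 further: calls also rest on retests at 20 µM and on dose response follow-up; 0% = protein and probe with vehicle and 100% = probe without protein; strong numbers were not always called active; many hits fall short of the cut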
# Rce1 inhib: inhibitors of yeast Ras-converting enzyme; Q03530; yeast membranes, quenched prenylated peptide cleavage fluorescence; calls only; 290,000 compounds, 0.27% hits; AID 2563;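 active means fall in fluorescence gain of 50% or more versus controls, with final raw signal at or below 3038400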;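 further: plate controls were neutral control wells for no effect and wells lacking membranes for full effect; tested at 10 µM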
# Target sequence (Q03530 whole entry, looked up): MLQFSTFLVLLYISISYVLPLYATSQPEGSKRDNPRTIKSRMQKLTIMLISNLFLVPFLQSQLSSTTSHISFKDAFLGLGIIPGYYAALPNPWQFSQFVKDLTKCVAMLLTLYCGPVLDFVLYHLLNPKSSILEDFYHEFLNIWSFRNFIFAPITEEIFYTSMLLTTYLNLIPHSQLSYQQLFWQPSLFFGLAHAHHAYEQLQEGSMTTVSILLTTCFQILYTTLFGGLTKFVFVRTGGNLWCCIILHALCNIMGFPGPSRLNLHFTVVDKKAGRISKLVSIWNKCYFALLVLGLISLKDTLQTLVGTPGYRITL
# eIF4H FP inh retest: also measured in eIF4H FP inh; calls as there; inhibition, %; compound at 20 µM; confirmation average;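 mean of two retest wells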
# PABP polyA inh retest: also measured in PABP polyA inh; calls as there; inhibition, %; compound at 20 µM; confirmation repeats;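 mean of two retest wells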
# MT1-MMP act inh RFP: second read-out of MT1-MMP act inh, no call of its own (marks repeat the call); RFP signal change, %; measured here: RFP expression control read;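 0 = vehicle wells; hits needed this value within 50% of zero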
# Numbers without * were called inactive; i = inactive; nt = not tested or not shown.
SMILES,CSC inhib,MT1-MMP act inh,MT1-MMP act inh RFP,PABP polyA inh,UUG fidelity,Env fusion inh,eIF4H FP inh,Rce1 inhib,others
CC1=C(C(=O)NC2CCCc3c2cnn3-c2cccc(C)c2C)OCCO1 (stereo unspecified),14,6,-26,-4,-10,nt,19,i,
COc1ccccc1N1CCN(C(=O)c2ccccc2NC(=O)C2CCCCC2C(=O)O)CC1 (stereo unspecified),-1,2,4,-6,-2,1,-5,i,
CCN(CC)S(=O)(=O)c1ccc(N2CCN(C)CC2)c(NC(=O)COc2ccc(F)cc2Cl)c1,-3,-2,0,nt,-2,6,nt,i,
CC(=O)Nc1ccc(S(=O)(=O)Nc2cccc(C(=O)NC(C)(C)C)c2)cc1,-9,7,-3,10,-2,nt,-14,i,
COc1ccc(N(C(C)C(=O)Nc2ccc(S(=O)(=O)N3CCOCC3)cc2)S(C)(=O)=O)cc1 (stereo unspecified),-10,-10,0,11,-3,4,-6,i,
COc1ccc(S(=O)(=O)Nc2ccccc2Cl)cc1NC(C)=O,-17,1,0,3,nt,-6,-7,i,
CCOc1ncccc1C(=O)OCC(=O)c1cccc(Br)c1,-8,15,6,2,nt,22,-3,i,
CCN(CC)S(=O)(=O)c1ccc(OC)c(NC(=O)C2CC(=O)N(c3ccc(C)cc3)C2)c1 (stereo unspecified),0,1,-4,0,-1,-2,-3,i,
CC1CCCCN1CCNC(=O)c1cnn2ccccc12 (stereo unspecified),-11,-4,5,7,-11,-21,-1,i,
COc1ccc(CNC(=O)C2CCN(C(=O)N(C)C)CC2)c(OC)c1,-2,6,1,11,-16,nt,5,i,
CN(NC1OC(=O)c2ccccc21)c1ccccc1[N+](=O)[O-] (stereo unspecified),4,1,0,2,-9,8,1,i,
COc1ccccc1-c1n[nH]nc1C1=CC(=O)C[C@H](c2ccc(F)cc2)C1,nt,0,2,nt,-4,-21,nt,nt,
Cc1ccc(NC(=O)CSc2nnc(CN3CCOCC3)n2C)cc1C,-4,-4,1,2,nt,3,-5,nt,
Cc1ccc(S(=O)(=O)N2CCC(C)CC2)cc1,-7,1,0,8,-12,-9,2,i,
Cc1cccc(OCC(=O)NCc2nnc3ccc(C(F)(F)F)cn23)c1C,-27,3,3,nt,-17,nt,nt,nt,
Cc1cccc(CSc2nc3c(c(=O)[nH]2)CCCC3)c1,-6,-7,-1,-18,-3,-21,6,i,
O=C(NC(=S)Nc1ccccc1Cl)c1cnn2c(C(F)(F)F)cc(C(F)(F)F)nc12,0,0,-3,3,-18,-2,-8,nt,
COC(=O)CC1C(=O)NCCN1C(=O)Nc1ccc(Cl)c(Cl)c1 (stereo unspecified),-6,1,6,9,-22,-15,4,i,
O=C(CSc1ncccn1)NCC1CCCO1 (stereo unspecified),-5,-3,0,4,-4,-274,3,i,
O=C(COC(=O)c1ccc(F)cc1Cl)NC(=O)NC1CCCC1,1,4,3,nt,-3,-2,nt,nt,
O=[N+]([O-])c1ccccc1NCCOc1ccccc1,7,5,0,1,nt,-326,-2,i,
Cc1ccc(-n2nc3c(c2NC(=O)/C=C\c2ccc4c(c2)OCO4)CSC3)c(C)c1,-13,-8,-2,-9,-16,-21,-1,i,
CN(C(=O)CN1CCN(c2cc(-c3cccc4oc5ccccc5c34)ncn2)CC1)c1ccccc1,nt,2,0,nt,6,9,nt,nt,
O=C1CSC(c2cccnc2)N1c1cccc(Cl)c1 (stereo unspecified),-2,4,-5,9,-14,11,-5,i,
CC1=C(C(=O)Nc2ccc(Cl)cc2)C(c2cccs2)n2nnnc2N1 (stereo unspecified),3,-2,0,0,-16,25,8,i,

# More entries:
SMILES,CSC inhib,MT1-MMP act inh,MT1-MMP act inh RFP,PABP polyA inh,UUG fidelity,Env fusion inh,eIF4H FP inh,Rce1 inhib,others
Cn1c(=O)c2c(ncn2CC(=O)N/N=C/C=C/c2ccccc2[N+](=O)[O-])n(C)c1=O,-1,nt,nt,5,nt,nt,0,i,
CCOc1ccc(CNCCN2CCCC2)cc1,-2,3,3,13,-3,6,9,i,
CC1CCC(NC(=O)CC(C)(C)Cc2nc3ccccc3c(=O)[nH]2)CC1 (stereo unspecified),-6,2,-7,-8,-7,nt,-10,i,
O=C(CSc1nnc(-c2cccs2)o1)N1CCc2ccccc21,-2,4,9,-1,10,-29,11,i,
COc1ccc(Br)cc1/C(C)=N/NC1=NCCN1,4,1,-10,-2,nt,nt,1,i,
OCc1ccc(-c2cncc3nccn23)cc1,nt,2,4,nt,-26,-79,nt,nt,
Cc1noc(C)c1S(=O)(=O)N1Cc2ccccc2CC1C(=O)N(C)C (stereo unspecified),-6,-1,3,5,-7,4,-10,i,
Cc1[nH]c2ccccc2c1NC(=O)CN1CCN(c2cccc(C(F)(F)F)c2)CC1,nt,-4,-1,33,0,nt,25,nt,
Cc1ccc(-n2nnnc2SCC(=O)N2CCN(C(=O)c3ccco3)CC2)c(C)c1,-3,3,3,3,13,nt,-3,i,
S=C(NC1CC1)N1CCN(c2ccc(Cl)cc2)CC1,-4,2,0,-2,nt,-33,-8,i,
NC1=C([N+](=O)[O-])C(c2ccc3c(c2)OCO3)C2=C(CCCC2=O)O1 (stereo unspecified),23,1,-2,11,-28,-1,1,i,
O=C(COC(=O)CC1c2ccccc2CCN1S(=O)(=O)c1ccccc1)Nc1ccccc1 (stereo unspecified),3,-1,0,-5,nt,-11,-4,i,
O=C(Nc1ccccc1)N1CCN(c2ccc(C(F)(F)F)cn2)CC1,12,4,-7,5,nt,25,2,i,
Cn1cc(Br)c(C(=O)NNC(=O)c2cccc(Br)c2)n1,-2,4,8,2,nt,nt,-1,i,
COC(=O)c1ccccc1NC(=O)CN(c1c(C)cccc1C)S(C)(=O)=O,-3,2,0,14,-6,7,5,i,
NS(=O)(=O)c1cccc(NC(=O)c2cc(-c3cccs3)nc3ccccc23)c1,5,3,-5,12,-14,-7,-8,nt,
Cc1ccc(C(=O)NC(=S)N2CCCCCC2)cc1,nt,5,6,nt,-13,-17,nt,nt,
Cc1cc(NCc2cccnc2)nc(N)n1,-6,-1,0,2,-12,2,-2,i,
O=C(COc1ccccc1Cl)Nc1cccnc1,-9,-1,1,10,nt,-71,16,i,
CSc1ccccc1NC(=O)CN(c1ccccc1)S(=O)(=O)N(C)C,-6,3,1,0,1,nt,-4,i,
COc1ccc(NC(=O)/C(=C\c2cc(OC)c(OC)cc2[N+](=O)[O-])NC(=O)c2ccccc2)cc1,nt,-1,1,2,0,nt,4,i,
CCOC(=O)c1cnc(-n2nc(C)cc2C)nc1NNc1cc(C)nc(-c2ccccc2)n1,101*,nt,nt,5,-33,nt,10,i,
COCCn1c(C)cc(C(=O)COC(=O)/C=C/c2c(C)nn(C3CCS(=O)(=O)C3)c2Cl)c1C (stereo unspecified),-8,2,-3,nt,1,nt,nt,i,
O=C(OCC(=O)N(C1CCCCC1)C1CCCCC1)c1ccc(Cl)nc1,-6,-1,-2,nt,-13,nt,nt,nt,
COc1ccccc1/C=C/C(=O)OCC(=O)Nc1ccc(Cl)cn1,31,-2,2,-8,-12,22,-5,nt,

# Brought forward from above: 3 compounds, then new ones.
SMILES,CSC inhib,MT1-MMP act inh,MT1-MMP act inh RFP,PABP polyA inh,UUG fidelity,Env fusion inh,eIF4H FP inh,Rce1 inhib,others
COCCn1c(C)cc(C(=O)COC(=O)/C=C/c2c(C)nn(C3CCS(=O)(=O)C3)c2Cl)c1C (stereo unspecified),-8,2,-3,nt,1,nt,nt,i,
O=C(OCC(=O)N(C1CCCCC1)C1CCCCC1)c1ccc(Cl)nc1,-6,-1,-2,nt,-13,nt,nt,nt,
COc1ccccc1/C=C/C(=O)OCC(=O)Nc1ccc(Cl)cn1,31,-2,2,-8,-12,22,-5,nt,
COc1ccccc1C(=O)NCC(=O)OC(C)C(=O)N(C)C1CCCCC1 (stereo unspecified),nt,2,2,nt,6,-12,nt,nt,
C[C@H](O)C(=O)C1=Nc2c(nc(N)[nH]c2=O)NC1,-10,-3,-3,nt,-12,-25,nt,nt,
Cc1cccc(Cl)c1NC(=S)NN,-3,5,3,-1,nt,3,8,i,
CCN(C[C@H]1N[C@@](CC)(C(=O)OC)[C@H]2C(=O)N(C)C(=O)[C@@H]12)C(=O)Nc1ccc(OC)cc1,nt,1,1,nt,-7,-53,nt,nt,
CCC(C)Sc1ccc(-c2nc3ccc(Cl)cn3c2NCc2ccccc2)cc1 (stereo unspecified),9,-2,-10,nt,-25,-117,nt,nt,
CC(C)(CNC(=O)c1cccc(S(=O)(=O)NCc2ccccc2)c1)N1CCOCC1,7,2,0,nt,3,nt,nt,i,
CC1(C(=O)Nc2ccccc2Cc2ccccc2)CCN1Cc1ccccc1Cl (stereo unspecified),nt,-3,0,nt,-33,40,nt,nt,
CC12CCC(=O)N1C(C(=O)N1CCN(c3cccc(Cl)c3)CC1)CS2 (stereo unspecified),1,0,-2,nt,3,17,nt,nt,
CC1CCN(c2nc(N3CCCCC3)nc(N3CCCCC3)n2)CC1,-14,0,0,-3,-9,-13,6,i,
COc1cccc(C(=O)Nc2ccc3c(c2)C(=O)c2ccccc2C3=O)c1,7,-2,-7,0,nt,i,44,i,
CCCCNC(=O)N1CCN(c2ccccc2OCC)CC1,-7,0,-2,6,nt,-2,1,nt,
Cc1ccc[n+](-c2[nH]c(=O)sc2/C=N/NC(=O)c2ccccc2[O-])c1,-12,-8,0,1,nt,9,55,i,eIF4H FP inh retest=47;PABP polyA inh retest=17
COCCN(C(=O)COC(=O)C(c1ccccc1)c1ccccc1)c1c(N)n(Cc2ccccc2)c(=O)[nH]c1=O,-13,17,-5,nt,nt,nt,nt,i,
COc1cc2nc(SCC(=O)NCc3ccco3)n(Cc3ccc(Cl)cc3)c(=O)c2cc1OC,nt,13,4,-6,-8,-242,0,i,
CCOC(=O)C1=C(C)N=C2SCCC(=O)N2[C@@H]1/C=C/c1ccccc1,-6,-10,-7,-2,-17,-15,-16,i,
Cc1cccc(C)c1NC(=S)N/N=C/c1ccc(OCCC(C)C)cc1,12,-4,-11,13,-19,-99,4,i,
Cn1c(Oc2ccccc2NCc2cccc(Br)c2)cc(=O)n(C)c1=O,-6,0,-2,-12,-1,nt,-7,i,
COc1cc(C(=O)N/N=C/c2ccccn2)cc(OC)c1OC,30,1,-6,0,nt,-99,3,i,
Cc1nc2cc(-c3ccccc3)[nH]n2c(=O)c1C,-29,-1,-1,6,-15,-12,-4,i,
CCn1c(=O)n(CC)c2cc(S(N)(=O)=O)ccc21,-5,-4,-2,1,-10,-14,-2,i,
CCCc1nnc(SCC(=O)Nc2ccc(C(=O)OCC)cc2)o1,5,1,0,26,-15,-12,8,i,
Cc1cc2c(=O)n(C)c(SCC(=O)Nc3ccccc3)nc2s1,-7,1,3,1,-9,13,-9,i,
O=C(N/N=C\c1ccc(Br)cc1)c1ccc(Cn2cccn2)o1,-8,1,0,11,nt,nt,-4,i,
O=C(CCN1C(=O)C2CCCCC2C1=O)Nc1nc(-c2ccccc2)cs1 (stereo unspecified),1,4,5,-7,nt,4,-5,i,
Cc1ccc(S(=O)(=O)C(c2ccccc2)c2c(C)noc2C)cc1 (stereo unspecified),-6,-2,-2,-6,-8,8,1,i,
COc1cc(OC)c(C(=O)O/N=C(\N)c2ccccc2)cc1OC,-13,-1,-4,4,13,-8,-9,i,
CCOC(=O)C(C)Sc1nc(=O)n2ccccc2n1 (stereo unspecified),5,1,5,11,nt,7,12,i,
O=C(O)c1ccccc1NS(=O)(=O)c1ccc2c3c(cccc13)C(=O)N2,-14,-3,2,22,-12,-306,0,nt,
O=C(c1ccco1)N1CCN(C(=O)c2sccc2-c2ccccc2)CC1,nt,1,1,-1,-12,5,8,i,
CNS(=O)(=O)c1cccc(C(=O)OCc2cc(=O)n3cc(Br)ccc3n2)c1,-14,5,6,4,nt,5,17,i,
